Vaccinia inh = Vaccinia orthopox stage-specific inhibition | Vaccinia-infected cells, mCherry/Venus stage reporter fluorescence; stronger effect = lower value; some inactives read as strong as hits | activity change (mCherry), % (concentration not given with the values) | 0.01% of 89,000 active;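 active = mCherry past -33% and 40 or more points under the early reporter, replicates agreeing; inconclusive = past -33% without that gap or agreement; tested in A549 cells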;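 note: scaled between vehicle wells and reference inhibitor wells; 23 nL library stock went into each well; one replicate is shown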
Vaccinia inh Venus = recorded beside Vaccinia inh, whose call it bears; activity change (Venus), %; measured here: Venus reporter, other viral stage;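 negative = less Venus signal; first of two replicates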
Numbers without * were called inactive; ? = inconclusive; nt = not tested or not shown; & = joins results of further samples. These rows are one share of the data, so the mix of outcomes need not match the whole.

mol | Vaccinia inh | Vaccinia inh Venus
CC(C)C#Cc1ccc2c(c1)O[C@H](CN(C)C(=O)CN(C)C)[C@@H](C)CN([C@@H](C)CO)S2(=O)=O | -25.9 | -11.3
CCS(=O)(=O)NCC[C@@H]1CC[C@@H](NC(=O)Cc2ccccn2)[C@@H](CO)O1 | -6.0 | -1.7
C[C@@H]1CCCCO[C@@H](CN(C)S(=O)(=O)c2cn(C)cn2)[C@@H](C)CN([C@@H](C)CO)C(=O)c2cc(NC(=O)Nc3ccc4c(c3)OCO4)ccc2O1 | 20.0 | 12.1
N#C[C@H]1[C@H](c2ccc(C3=CCCCC3)cc2)[C@@H](CO)N1C(=O)c1ccccn1 | 9.2 | 34.6
COCC(=O)Nc1ccc2c(c1)C(=O)N(C)C[C@H](OC)[C@@H](C)CN(C(C)=O)[C@H](C)CO2 | 2.7 | -1.5
Cc1cc(C(=O)Nc2cccc3c2O[C@@H](CN(C)Cc2ccc(C(=O)Nc4ccccc4N)cc2)[C@@H](C)CN([C@@H](C)CO)C3=O)n(C)n1 | -6.8 | -4.3
C[C@H]1CN([C@@H](C)CO)C(=O)c2cccc(NC(=O)Nc3cccc4ccccc34)c2O[C@H]1CN(C)S(=O)(=O)c1cn(C)cn1 | 4.4 | -2.8
C[C@H](CO)N1C[C@H](C)[C@@H](CN(C)C(=O)Nc2ccc(F)cc2)Oc2ncc(C#CC3CC3)cc2C1=O | 3.6 | -4.2
Cc1ccccc1NC(=O)Nc1ccc2c(c1)C(=O)N(C)[C@@H]1CC[C@H](CC(=O)NCC3CC3)O[C@@H]1CO2 | 9.9 | 5.5
CNC[C@H]1Oc2ccc(NC(=O)Nc3c(C)noc3C)cc2C(=O)N([C@H](C)CO)C[C@@H]1C | 8.6 | 15.7
C[C@H]1CN([C@@H](C)CO)C(=O)Cc2cc(NS(=O)(=O)c3cn(C)cn3)ccc2O[C@@H]1CN(C)Cc1ccncc1 | 7.8 | 2.9
CN(C)CC(=O)Nc1ccc2c(c1)[C@H]1C[C@H](CC(=O)NCC3CC3)O[C@H](CO)[C@H]1O2 | 14.5 | 7.7
CN1C(=O)c2cc(NC(=O)Nc3ccc(Cl)cc3)ccc2OC[C@@H]2O[C@H](CC(=O)NCCN3CCCCC3)CC[C@H]21 | 1.9 | 5.9
C[C@@H]1CN([C@@H](C)CO)C(=O)CCCn2nncc2CO[C@H]1CN(C)C(=O)Nc1cccc(Oc2ccccn2)c1 | 1.9&11.8 | 2.1&10.5
O=C(Nc1ccccc1)N[C@H]1CC[C@@H](CCn2cc(C3(O)CCCC3)nn2)O[C@H]1CO | 7.8 | 8.0
Cn1cnc(S(=O)(=O)N2C[C@@H](O)COC[C@H]3O[C@@H](CC(=O)NCc4cc(F)cc(F)c4)CC[C@@H]32)c1 | 1.4 | -0.9
CCC(=O)N(C)C[C@H]1Oc2ncc(-c3cccc(OC)c3)cc2C(=O)N([C@H](C)CO)C[C@@H]1C | 25.5 | 9.0
Cc1noc(C)c1S(=O)(=O)Nc1ccc2c(c1)C(=O)N([C@@H](C)CO)C[C@@H](C)[C@@H](CN(C)C(=O)Nc1ccc(C(F)(F)F)cc1)OCCCC[C@H](C)O2 | -14.3 | -9.8
C[C@@H]1CCCCO[C@H](CN(C)C(=O)Cc2ccccc2)[C@H](C)CN([C@H](C)CO)C(=O)c2cc(NS(C)(=O)=O)ccc2O1 | -2.1 | 8.1
Cc1ccc(S(=O)(=O)Nc2ccc3c(c2)CC(=O)N([C@H](C)CO)C[C@H](C)[C@@H](CN(C)S(C)(=O)=O)O3)cc1 | -4.9 | 3.1
C[C@@H]1CN([C@H](C)CO)C(=O)c2cccc(NC(=O)CCCCCC(=O)Nc3ccccc3N)c2O[C@H]1CN(C)Cc1ccncc1 | -2.5 | -12.6
C[C@H]1CN([C@@H](C)CO)C(=O)c2cc(C#CC3CCCCC3)cnc2O[C@@H]1CN(C)Cc1ccncc1 | -22.9 | -20.5
C[C@H](CO)N1C[C@H](C)[C@@H](CN(C)S(=O)(=O)c2cccs2)Oc2c(cccc2N(C)C)C1=O | 9.0 | 3.0
COc1ccccc1NC(=O)N[C@@H]1CC[C@@H](CCn2cc(-c3cccnc3)nn2)O[C@@H]1CO | -21.1 | -18.9
CN(C)c1ccc2c(c1)[C@H]1C[C@H](CC(=O)NCc3ccccc3)O[C@@H](CO)[C@H]1O2 | 4.8 | 8.9
C[C@H](CO)N1C[C@H](C)[C@H](CN(C)CC2CC2)Oc2c(NC(=O)Nc3ccccc3)cccc2C1=O | 1.6 | 5.2
C[C@H](O)C#Cc1cnc2c(c1)C(=O)N([C@@H](C)CO)C[C@@H](C)[C@@H](CN(C)C(=O)c1ccccc1F)O2 | 1.6 | -8.9
C[C@@H]1CN([C@H](C)CO)C(=O)c2cc(/C=C/c3ccccc3)cnc2O[C@H]1CN(C)S(=O)(=O)c1ccc(F)cc1 | -10.8 | -7.4
C[C@H](CO)N1C[C@H](C)[C@H](CN(C)Cc2ccccc2)Oc2ccc(NS(=O)(=O)c3ccc(F)cc3)cc2C1=O | -8.4 | -1.2
COc1ccccc1-c1ccc2c(c1)O[C@@H](CN(C)S(=O)(=O)c1ccccc1)[C@H](C)CN([C@@H](C)CO)S2(=O)=O | -26.3 | -16.5
C[C@H](CO)N1C[C@H](C)[C@@H](CN(C)C)Oc2cc(C#Cc3ccc(F)cc3)ccc2S1(=O)=O | ? | nt
C[C@@H]1CN([C@H](C)CO)C(=O)c2cc(C#Cc3ccc(F)cc3)cnc2O[C@@H]1CN(C)CC1CCOCC1 | -22.7 | -19.3
O=C(C[C@H]1CC[C@@H]2[C@H](COC[C@H](O)CN2S(=O)(=O)c2ccc(F)cc2)O1)NCC1CCCCC1 | -10.5 | 1.8
CN1C(=O)c2cc(NS(C)(=O)=O)ccc2OC[C@H]2O[C@H](CC(=O)O)CC[C@H]21 | 3.9 | 6.4
C[C@H]1CN([C@@H](C)CO)C(=O)Cc2cc(N(C)C)ccc2O[C@@H]1CN(C)Cc1ccc(Oc2ccccc2)cc1 | -18.9 | -20.1
C[C@@H]1CCCCO[C@H](CN(C)C(=O)Nc2ccc3c(c2)OCO3)[C@H](C)CN([C@@H](C)CO)C(=O)c2cc(NC(=O)Nc3cccc4ccccc34)ccc2O1 | 13.0 | 3.9
CN1CCN(C(=O)C[C@H]2CC[C@@H]3[C@H](COC[C@@H](O)CN3S(=O)(=O)c3cccc(Cl)c3)O2)CC1 | 14.8 | 5.7
C[C@@H]1CN([C@H](C)CO)C(=O)c2cc(/C=C/c3ccccc3)cnc2O[C@@H]1CN(C)C(=O)NC1CCCCC1 | -7.8 | 1.4
C[C@H](CO)N1C[C@H](C)[C@H](CN(C)S(=O)(=O)c2ccc(F)cc2)Oc2c(NC(=O)C3CCOCC3)cccc2C1=O | 8.2 | 8.0
CC(=O)N(C)C[C@H]1Oc2cc(C#Cc3ccccn3)ccc2S(=O)(=O)N([C@@H](C)CO)C[C@H]1C | 23.5 | 19.0

The listing continues.
canonical_smiles	Vaccinia inh	Vaccinia inh Venus
C[C@H]1CN([C@@H](C)CO)C(=O)c2ccccc2-c2ccccc2CO[C@H]1CN(C)C(=O)Nc1ccc(F)cc1	17.0	9.7
C[C@@H]1CN([C@@H](C)CO)C(=O)c2cc(NC(=O)Cc3cn(C)c4ccccc34)ccc2O[C@H]1CN(C)S(=O)(=O)c1ccc(Cl)cc1	0.7	0.2
C[C@@H]1CCCCO[C@@H](CN(C)Cc2ccccc2)[C@H](C)CN([C@H](C)CO)C(=O)c2cc(NC(=O)Nc3ccc(F)cc3)ccc2O1	?	nt
C[C@@H]1CN([C@H](C)CO)C(=O)c2cc(-c3ccc(C#N)cc3)cnc2O[C@@H]1CN(C)C(=O)Nc1ccccc1	3.5	-4.9
CC(C)C#Cc1ccc2c(c1)O[C@@H](CN(C)C(=O)c1cccnc1)[C@@H](C)CN([C@H](C)CO)S2(=O)=O	9.5	-0.3
Cc1noc(C)c1NC(=O)N(C)C[C@H]1Oc2ccc(NC(=O)Nc3cccc4ccccc34)cc2CC(=O)N([C@H](C)CO)C[C@H]1C	18.4	19.6
C[C@@H]1CN([C@H](C)CO)C(=O)c2cc(NS(=O)(=O)c3ccc(F)cc3)ccc2O[C@@H](C)CCCCO[C@H]1CN(C)C(=O)C1CCCCC1	?	nt
CC(=O)N1[C@H](CO)[C@H](c2ccc(C3=CCCC3)cc2)[C@@H]1CNC(=O)CC1CC1	2.7	5.1
COc1ccc(NC(=O)N(C)C[C@H]2Oc3ccc(NS(=O)(=O)c4cn(C)cn4)cc3C(=O)N([C@@H](C)CO)C[C@@H]2C)cc1	22.7	17.4
COCCNC(=O)C[C@@H]1C[C@H]2c3cc(NS(C)(=O)=O)ccc3O[C@H]2[C@H](CO)O1	11.3	7.3
C[C@@H]1CCCCO[C@@H](CN(C)C(=O)c2ccccc2)[C@H](C)CN([C@@H](C)CO)C(=O)c2cc(NS(=O)(=O)c3ccccc3)ccc2O1	5.1	-6.1
CCCNC(=O)N1CC(=O)N2[C@H](CO)[C@@H](c3ccc(C#Cc4ccc(F)cc4)cc3)[C@H]2C1	?	nt
C[C@H](CO)N1C[C@H](C)[C@@H](CN(C)S(=O)(=O)c2cn(C)cn2)Oc2ccc(N(C)C)cc2CC1=O	17.9	10.1
C/C=C/c1ccc([C@@H]2[C@@H](CO)N3C(=O)CN(Cc4ccc(C)cc4)C[C@@H]23)cc1	-7.5	-9.5
C[C@H](CO)N1C[C@H](C)[C@@H](CN(C)Cc2cccnc2)Oc2ncc(C3=CCCC3)cc2C1=O	-8.4	-11.5
Nc1cc(=O)[nH]c(=O)n1Cc1ccccc1	7.1	6.3
C[C@H]1CN([C@@H](C)CO)C(=O)c2cc(NS(=O)(=O)c3ccc(Cl)cc3)ccc2O[C@@H]1CN(C)Cc1ccncc1	14.1	17.5
CCCNC(=O)N(C)C[C@H]1Oc2ncc(Br)cc2C(=O)N([C@H](C)CO)C[C@@H]1C	19.2	4.6
COc1ccc2c3c(n(C)c2c1)[C@H](CO)N(C(=O)C1CCCC1)CC31CN(C)C1	-1.8	-8.8
CN(C)C(=O)C[C@@H]1C[C@@H]2c3cc(NS(C)(=O)=O)ccc3O[C@@H]2[C@@H](CO)O1	15.0	18.7
O=C(NCC[C@H]1CC[C@@H](NC(=O)c2ccncc2)[C@@H](CO)O1)Nc1ccc(Cl)cc1	14.2	13.6
COc1ccccc1-c1cnc2c(c1)C(=O)N([C@@H](C)CO)C[C@H](C)[C@@H](CN(C)C(=O)CN(C)C)O2	-2.7	-8.3
O=C(c1cccnc1)N1CC[C@@H]2[C@@H](CO)Nc3ccc(C4=CCCCC4)cc3[C@@H]21	8.4	1.7
O=C(CC1CC1)N1CC2(C1)[C@H](c1ccccc1)[C@@H](CO)N2Cc1ccccc1	9.5	7.1

Gathered by group, the compounds so far containing a Cl atom
canonical_smiles	Vaccinia inh	Vaccinia inh Venus
CN1C(=O)c2cc(NC(=O)Nc3ccc(Cl)cc3)ccc2OC[C@@H]2O[C@H](CC(=O)NCCN3CCCCC3)CC[C@H]21	1.9	5.9
CN1CCN(C(=O)C[C@H]2CC[C@@H]3[C@H](COC[C@@H](O)CN3S(=O)(=O)c3cccc(Cl)c3)O2)CC1	14.8	5.7
C[C@@H]1CN([C@@H](C)CO)C(=O)c2cc(NC(=O)Cc3cn(C)c4ccccc34)ccc2O[C@H]1CN(C)S(=O)(=O)c1ccc(Cl)cc1	0.7	0.2
C[C@H]1CN([C@@H](C)CO)C(=O)c2cc(NS(=O)(=O)c3ccc(Cl)cc3)ccc2O[C@@H]1CN(C)Cc1ccncc1	14.1	17.5
O=C(NCC[C@H]1CC[C@@H](NC(=O)c2ccncc2)[C@@H](CO)O1)Nc1ccc(Cl)cc1	14.2	13.6

In the list so far, these contain an aryl methoxy group:
canonical_smiles	Vaccinia inh	Vaccinia inh Venus
CCC(=O)N(C)C[C@H]1Oc2ncc(-c3cccc(OC)c3)cc2C(=O)N([C@H](C)CO)C[C@@H]1C	25.5	9.0
COc1ccccc1NC(=O)N[C@@H]1CC[C@@H](CCn2cc(-c3cccnc3)nn2)O[C@@H]1CO	-21.1	-18.9
COc1ccccc1-c1ccc2c(c1)O[C@@H](CN(C)S(=O)(=O)c1ccccc1)[C@H](C)CN([C@@H](C)CO)S2(=O)=O	-26.3	-16.5
COc1ccc(NC(=O)N(C)C[C@H]2Oc3ccc(NS(=O)(=O)c4cn(C)cn4)cc3C(=O)N([C@@H](C)CO)C[C@@H]2C)cc1	22.7	17.4
COc1ccc2c3c(n(C)c2c1)[C@H](CO)N(C(=O)C1CCCC1)CC31CN(C)C1	-1.8	-8.8
COc1ccccc1-c1cnc2c(c1)C(=O)N([C@@H](C)CO)C[C@H](C)[C@@H](CN(C)C(=O)CN(C)C)O2	-2.7	-8.3

Screening data as filed in PubChem BioAssay.
